CSC inhib = blocks cancer stem cells; cancer stem cell-like cells viability, luminescence; inhibition, % at 7.5 µM; 1.1% of 300,000 active;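 active = mean at 75% or more and at least half the replicates too; inconclusive = mean and replicates disagree; tested in HMLE shEcad cells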;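 also: 0% = median of negative and 100% = median of positive control wells; the first replicate is given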
MT1-MMP act inh = MT1-MMP (human) activation inhibition; P50281; HT1080 RFP-PRO-GFP cells, GFP/RFP ratio fluorescence, overnight; percent of plate control window, DMSO zero; GFP/RFP ratio change, % at 20 µM; 0.061% of 360,000 active; AID 651647;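 active = GFP/RFP ratio change of at least 30% with cell ATP level not reduced by more than half and red fluorescence within 50% of control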; also: strong numbers were not always called active
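Test system: HT1080 RFP-PRO-GFP cells; Benchmarks: DMSO and RFP-L50D-GFP cell wells; Timing: cells overnight before dosing, compound overnight, 37 °C, 5% CO2; Compound: one 20 µM compound dose with 1% DMSO; Read-out: GFP/RFP fluorescence ratio.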
UUG fidelity = modulators of start codon recognition fidelity in yeast | S. cerevisiae UUG-firefly luciferase reporter, luminescence/redox ratio | activity score, % at 18.7 µM | 0.13% of 350,000 active | AID 602363;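 active = replicate mean at a twofold rise or more, about +100% in these data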;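 also: firefly luciferase made from a UUG start codon reports start codon fidelity; reporter light over untreated wells divided by growth signal over untreated wells; some hits fall short of that in this replicate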
PABP polyA inh = PABP-poly(A) binding inhibition; 1% of 290,000 active; PABP-poly(A) RNA binding, fluorescence polarization; P11940; inhibition, % at 35 µM;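 active = 50% or more with normal probe brightness, or confirmed in later tests; inconclusive = above 50% with abnormal brightness, or retests that disagree; inactive = below 50% or failed in later tests; about a fifth of its hits are not listed in these tables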;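 also: calls also rest on retests at 20 µM and on dose response follow-up; controls were probe without protein and protein plus probe with vehicle; some compounds called inactive have numbers as strong as hits; many hits fall short of the cut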
Target sequence (P11940 whole entry, looked up): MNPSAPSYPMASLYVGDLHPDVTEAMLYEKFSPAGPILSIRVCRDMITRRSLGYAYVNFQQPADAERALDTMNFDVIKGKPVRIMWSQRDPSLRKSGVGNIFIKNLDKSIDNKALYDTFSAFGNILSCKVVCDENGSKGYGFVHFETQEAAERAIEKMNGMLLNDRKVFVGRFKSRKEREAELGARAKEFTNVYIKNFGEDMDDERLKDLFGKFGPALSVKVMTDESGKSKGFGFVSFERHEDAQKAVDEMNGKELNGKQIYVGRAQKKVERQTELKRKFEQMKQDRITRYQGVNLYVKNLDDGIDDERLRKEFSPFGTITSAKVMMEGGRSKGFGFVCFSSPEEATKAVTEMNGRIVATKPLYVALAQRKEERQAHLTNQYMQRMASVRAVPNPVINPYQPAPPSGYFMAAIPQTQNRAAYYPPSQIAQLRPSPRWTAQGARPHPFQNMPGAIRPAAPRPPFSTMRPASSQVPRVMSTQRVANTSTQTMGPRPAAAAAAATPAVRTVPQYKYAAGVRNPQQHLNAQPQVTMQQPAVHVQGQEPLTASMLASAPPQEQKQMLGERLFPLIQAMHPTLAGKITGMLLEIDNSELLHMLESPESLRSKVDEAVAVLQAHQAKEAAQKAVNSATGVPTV
Env fusion inh = blocks HIV Env-driven cell-cell fusion; HeLa-JRFL Env/CEM21 cell fusion, luciferase; inhibition, % at 12.3 µM; 1.1% of 360,000 active;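 active = mean replicate inhibition score of at least 50 and every replicate individually at or above 50; inconclusive = only one of the two criteria met; inactive = mean below 50 and not all replicates reaching 50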;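 also: 0% = plate neutral controls and 100% = maraviroc near 300 nM; one replicate is shown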
Rce1 inh = inhibitors of yeast Ras-converting enzyme | Q03530 | yeast membranes, quenched prenylated peptide cleavage fluorescence | calls only | 0.27% of 290,000 active | AID 2563;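 active = fall in fluorescence gain of 50% or more versus controls, with final raw signal at or below 3038400; inconclusive = same 50% fall but final raw signal above 3038400; inactive = fall in fluorescence gain under 50%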;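 also: plate controls were neutral control wells for no effect and wells lacking membranes for full effect; tested at 10 µM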
eIF4H inh = inhibitors of RNA binding by human eIF4H; AID 2012; eIF4H fluorescence polarization binding assay; 0.94% of 290,000 active; Q15056; inhibition, % at 35 µM;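 active = 50% or more with normal probe brightness, or confirmed in later tests; inconclusive = above 50% with abnormal brightness, or retests that disagree; inactive = below 50% or failed in later tests; about a fifth of its hits are not listed in these tables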;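 also: calls also rest on retests at 20 µM and on dose response follow-up; 0% = protein and probe with vehicle and 100% = probe without protein; strong numbers were not always called active; many hits fall short of the cut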
eIF4H inh retest = also measured in eIF4H inh; calls as there; inhibition, %; compound at 20 µM; confirmation average;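 mean of two retest wells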
PABP polyA inh retest = further read-out of PABP polyA inh, marked with its call; inhibition, %; compound at 20 µM; confirmation repeats;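 mean of two retest wells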
MT1-MMP act inh RFP = further read-out of MT1-MMP act inh, marked with its call; RFP signal change, %; measured here: RFP expression control read;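 0 = vehicle wells; hits needed this value within 50% of zero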
* = called active by the depositor; i = inactive; ? = inconclusive; . = no result given. Not all compounds are listed, so the mix of outcomes need not match the whole.

SMILES	CSC inhib	MT1-MMP act inh	MT1-MMP act inh RFP	UUG fidelity	PABP polyA inh	Env fusion inh	Rce1 inh	eIF4H inh	others
CC(=O)Oc1ccc2c(=O)oc(-c3ccc([N+](=O)[O-])cc3)nc2c1	-4	2	6	.	-4	0	i	4
CCOC(=O)c1c(CN(C)C)n(C)c2c(O)c(N=NC(N)=O)c3ccc(Br)cc3c12	-1	-2	2	-10	2	14	i	-4
CC1(C)C2CCC1(C)C(OC(=O)CNc1ccccc1)C2 (centres undefined)	-1	1	4	-8	10	19	i	15
Cc1ccccc1NC(=O)CN1CCN(Cc2ccccc2)CC1	48	-2	0	-5	2	27	i	9
O=C(NCc1ccccc1)c1ccc(Br)cc1	-12	2	-4	-18	-4	0	i	-3
Cc1ccc(Nc2ccc(C(=O)NC3CCCCC3)cn2)cc1	36	7	3	-31	-9	5	i	-7
CCOc1ccc(S(=O)(=O)c2c[nH]c3ccc(C)cc3c2=O)cc1	6	1	-4	-15	1	22	i	-9
Cc1ccc(CN2CCN(Cc3cccn3-c3nccs3)CC2CCO)cc1 (centres undefined)	-6	4	6	.	2	7	i	-6
CC(NC(=O)c1ccco1)c1nc(-c2ccc(Cl)cc2)no1 (centres undefined)	7	5	-2	-18	1	-10	.	-9
CCNC(=S)NNc1ccccc1	-6	0	5	-14	5	-5	i	5
O=C(O)CCCC(=O)Nc1ccc(Oc2ncnc3cc(Cl)ccc23)nc1	-6	-2	2	-17	-4	1	i	-4
Fc1ccccc1N=C1NN=C(c2ccccc2)CS1	47	-10	-27	-33	-4	40	i	-10
CCOC(=O)C1CSC2(CCC(c3ccccc3)CC2)N1 (centres undefined)	-7	-1	3	.	-4	-1	i	-3
Cc1nn(-c2ccc([N+](=O)[O-])cc2)c2c1C(c1cccc(Br)c1)N1C(=N2)C(=O)Nc2ccccc21 (centres undefined)	9	-36	-23	.	81	43	i	-8	eIF4H inh retest=0;PABP polyA inh retest=13
Cc1cc(C)nc(NS(=O)(=O)c2ccc(N/C=C/C(=O)c3ccc(Cl)c(Cl)c3)cc2)n1	13	-4	-6	3	10	.	i	0
COc1ccc(CN(CCC(c2ccccc2)C2CCOC(C)(C)C2)C(C)=O)cc1 (centres undefined)	3	0	0	20	104	5	i	1	eIF4H inh retest=-14;PABP polyA inh retest=14
O=C1C=C(c2ccc3ncccc3c2)C[C@@H](c2ccc(Cl)cc2)C1	57	1	-4	-5	.	12	.	.
Cc1ccccc1NS(=O)(=O)c1nnc(NC(=O)CC(C)C)s1	-7	-3	2	-13	2	3	i	-7
COc1ccc(S(=O)(=O)N2CCOCC2)cc1NC(=O)CN1C(=O)CN(C)C1=O	-4	3	2	-20	.	14	.	.
O=C(NCCCn1cccn1)c1cc(COc2ccc(F)cc2Cl)on1	3	2	1	.	-3	-14	i	-8
O=c1c(-c2ccccc2)cnc2n1CCS2	-17	3	0	.	-1	5	i	0
Cc1cccc(C)c1OCC(=O)N/N=C/c1ccc2c(c1)OCO2	60	-8	-17	-8	-5	.	i	-17
O=S(=O)(NC1CCCCC1)c1ccc(Br)s1	-3	0	-1	-7	2	-3	i	-6
C=CCn1c(COc2ccccc2)nnc1SCC(=O)Nc1ccc2c(c1)OCCO2	-5	-3	1	-11	-8	.	i	-5

Compounds from the list above with a Cl atom:
SMILES	CSC inhib	MT1-MMP act inh	MT1-MMP act inh RFP	UUG fidelity	PABP polyA inh	Env fusion inh	Rce1 inh	eIF4H inh	others
CC(NC(=O)c1ccco1)c1nc(-c2ccc(Cl)cc2)no1 (centres undefined)	7	5	-2	-18	1	-10	.	-9
O=C(O)CCCC(=O)Nc1ccc(Oc2ncnc3cc(Cl)ccc23)nc1	-6	-2	2	-17	-4	1	i	-4
Cc1cc(C)nc(NS(=O)(=O)c2ccc(N/C=C/C(=O)c3ccc(Cl)c(Cl)c3)cc2)n1	13	-4	-6	3	10	.	i	0
O=C1C=C(c2ccc3ncccc3c2)C[C@@H](c2ccc(Cl)cc2)C1	57	1	-4	-5	.	12	.	.
O=C(NCCCn1cccn1)c1cc(COc2ccc(F)cc2Cl)on1	3	2	1	.	-3	-14	i	-8

A draw from above in order of molecular weight, smallest number first.
SMILES	CSC inhib	MT1-MMP act inh	MT1-MMP act inh RFP	UUG fidelity	PABP polyA inh	Env fusion inh	Rce1 inh	eIF4H inh	others
CCOC(=O)C1CSC2(CCC(c3ccccc3)CC2)N1 (centres undefined)	-7	-1	3	.	-4	-1	i	-3
O=S(=O)(NC1CCCCC1)c1ccc(Br)s1	-3	0	-1	-7	2	-3	i	-6
Cc1cccc(C)c1OCC(=O)N/N=C/c1ccc2c(c1)OCO2	60	-8	-17	-8	-5	.	i	-17
Cc1cc(C)nc(NS(=O)(=O)c2ccc(N/C=C/C(=O)c3ccc(Cl)c(Cl)c3)cc2)n1	13	-4	-6	3	10	.	i	0

A portion taken from the entries so far, as a working copy:
SMILES	CSC inhib	MT1-MMP act inh	MT1-MMP act inh RFP	UUG fidelity	PABP polyA inh	Env fusion inh	Rce1 inh	eIF4H inh	others
O=S(=O)(NC1CCCCC1)c1ccc(Br)s1	-3	0	-1	-7	2	-3	i	-6
C=CCn1c(COc2ccccc2)nnc1SCC(=O)Nc1ccc2c(c1)OCCO2	-5	-3	1	-11	-8	.	i	-5

New compounds follow:
SMILES	CSC inhib	MT1-MMP act inh	MT1-MMP act inh RFP	UUG fidelity	PABP polyA inh	Env fusion inh	Rce1 inh	eIF4H inh	others
COC(=O)c1c(-c2ccncc2)csc1NC(=O)c1ccoc1C	.	6	-2	-45	17	-70	i	1
O=c1[nH][nH]c(=O)c2nc(Nc3ccccc3)ncc12	.	2	6	1	.	-14	.	.
Cc1[nH]n2cnnc2c(=O)c1Br	2	0	6	.	17	15	i	-7
Cc1cccc(C(=O)Nc2ccc(C(=O)N/N=C/c3ccc(C)o3)cc2)c1	-3	-2	-6	-11	2	34	.	-9
C=CCN1C(c2ccc(Br)cc2)=CS/C1=C(/C#N)c1nnc(N2CCOCC2)n1-c1ccccc1	42	0	-12	.	-12	14	.	-3
O=C(NCc1cccs1)C1CCCN1C(=O)Nc1ccc(F)cc1 (centres undefined)	-1	-2	3	-17	-10	-6	i	-9
O=S(=O)(c1cccc2cccnc12)N1CCOCC1	-11	-3	2	.	-15	-17	i	-4
O=C(Nc1ccc(N2CCOCC2)cc1)Nc1ccc2nc(-c3ccco3)c(-c3ccco3)nc2c1	.	-6	-7	-16	10	38	i	107	eIF4H inh retest=-1;PABP polyA inh retest=12
COc1ccc([N+](=O)[O-])c(S(=O)(=O)c2ccccc2)n1	45	3	-4	-39	5	-53	i	4
Cc1ccc(OCC(=O)c2cc(C)n(C)c2C)c([N+](=O)[O-])n1	10	-6	0	-24	8	-9	i	76*	eIF4H inh retest=64*;PABP polyA inh retest=46
CC(C)c1ccc(S(=O)(=O)N2CCN(C(=O)C3CCCCC3)CC2)cc1	-19	-3	-10	-8	-7	-7	i	-4
CCn1nccc1C(=O)NC1=C(C#N)CCC1	1	-5	1	-17	10	.	i	12
COCCOC(=O)C1=C(N)OC2=C(C(=O)CC(C)(C)C2)C1c1ccncc1 (centres undefined)	-3	-3	1	-22	1	3	i	3
Cc1ccc2cc(C3CC(c4cccs4)=NN3S(C)(=O)=O)c(Cl)nc2c1 (centres undefined)	5	-1	1	.	2	1	i	-11
Cc1nn2c(-c3ccc(S(=O)(=O)N4CCN(CCO)CC4)o3)nnc2c2ccccc12	-6	-4	-6	0	16	-21	i	6
CC(=O)c1ccc(NC(=O)Cn2cnc(S(=O)(=O)N3CCC(C)CC3)c2)cc1	-5	6	4	-8	2	-1	i	-7
N#Cc1ccccc1Sc1ccccc1C(=O)NCC(c1ccco1)N1CCCCC1 (centres undefined)	1	0	3	-3	.	.	.	.
Cc1ccc(C)c(NC(=O)c2cc(-c3ccccc3O)n[nH]2)c1	9	2	-7	-16	-1	-39	i	-8
CCC(C)N(C(=O)COC(=O)C1CCN(S(=O)(=O)c2ccc(C)c(C)c2)CC1)C1CCS(=O)(=O)C1 (centres undefined)	-6	6	3	.	.	.	i	.
CCOc1ccc(NC(=S)N2CCCC2)cc1	3	-2	-2	-26	-6	-5	i	-5
Cc1oc2c(C)c3oc(=O)c(CCC(=O)N[C@@H](CC(C)C)C(=O)O)c(C)c3cc2c1C	-13	1	1	.	-11	4	i	0
O=c1c2ccccc2nc(/C=C/c2ccc([N+](=O)[O-])o2)n1CCCO	14	-94	-29	-3	?	.	i	?
Cc1ccc(CN2CCc3c(OCC(=O)Nc4cccc(C)c4C)cccc3C2=O)cc1	20	.	.	.	-5	.	i	-1
CCN(CC)c1cc(-c2ccccc2)ncn1	-5	-2	2	-4	0	-426	i	-8
NS(=O)(=O)c1cc(C(=O)NCC2CCCCC2)ccc1Cl	-5	4	3	-6	-1	-3	i	-18
COc1ccc(Br)cc1-c1nc(C)c(C(C)=O)n1O	1	-1	1	12	5	.	i	-6
Nc1nc(NCCc2ccccc2)nc(NCCO)c1[N+](=O)[O-]	-5	3	5	-12	4	-38	i	-3
Cc1ccc(CNC(=O)CN(C(=O)C2(C)CC(=O)N=C3C=CC=CN32)c2ccc(F)cc2)cc1 (centres undefined)	-4	-3	0	-12	-10	2	?	0
COc1ccc(CCN2CC(C(=O)OC(C)C(=O)Nc3cccc(Cl)c3)CC2=O)cc1OC (centres undefined)	1	2	2	10	.	.	.	.
CC(=O)NC(CSc1cc(C)nc2ccc(Br)cc12)C(=O)O (centres undefined)	-20	-1	2	12	8	-5	i	1
COc1ccc(OC)c(C2C(C(=O)N(C)C)=C(C)Nc3nc4ccccc4n32)c1 (centres undefined)	-19	-1	-1	-19	-12	.	i	7
COc1ccc(-c2cc(=O)oc3cc(OCC(=O)N4C[C@H]5C[C@@H](C4)c4cccc(=O)n4C5)ccc23)cc1	-10	-1	0	2	2	.	i	-7
O=C(CCCCn1c(=O)c2ccccc2n(Cc2ccc(Cl)cc2)c1=O)NCc1ccco1	47	-4	-9	-3	3	.	i	-2
COc1ccc(/C=C2\SC(=S)N(NC(=O)c3ccncc3)C2=O)cc1OC	-6	.	.	.	3	.	.	10
Cc1cccnc1NC(=O)c1ccc([N+](=O)[O-])o1	2	15	0	-7	-4	-12	i	-11
CCCCn1c(Cl)nc2c1c(=O)n(C)c(=O)n2C	-12	3	5	-3	-2	.	i	0
CCSc1nnc(-c2ccccc2SC)o1	-12	-2	0	.	2	-16	i	-7

Screening data as filed in PubChem.
